Screening results from PubChem BioAssay.
AmpC nodet inh = inhibitors of E. coli AmpC beta-lactamase without detergent. AmpC nitrocefin hydrolysis, absorbance 480 nm, no detergent; potencies from a single point are estimates. AID 585. actives 1.8% (n = 71,000). P00811. Potency, µM (titrated, usually from 28.7 µM), without a hit: at the highest dose activity change, negative = inhibition; active = falling curve, for most hits resting on a single point; inconclusive = weak or doubtful change; inactive = flat or rising curve; note: % of control where 0% means no effect; about half of the hits show no inhibition at the top dose; a quarter of the inactives give rising signals
Target sequence (P00811 whole entry, looked up): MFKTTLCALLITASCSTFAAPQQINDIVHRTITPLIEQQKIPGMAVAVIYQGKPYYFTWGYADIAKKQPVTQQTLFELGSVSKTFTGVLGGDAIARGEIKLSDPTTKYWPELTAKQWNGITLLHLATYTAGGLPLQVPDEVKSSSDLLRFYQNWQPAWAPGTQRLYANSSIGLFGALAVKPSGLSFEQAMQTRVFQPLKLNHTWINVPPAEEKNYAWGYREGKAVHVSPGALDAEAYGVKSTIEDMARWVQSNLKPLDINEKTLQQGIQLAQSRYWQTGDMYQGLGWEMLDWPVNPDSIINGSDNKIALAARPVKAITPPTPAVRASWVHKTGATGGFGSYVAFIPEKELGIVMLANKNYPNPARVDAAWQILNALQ
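AmpC in 20 mM phosphate buffer pH 7.0 was preincubated 15 min at room temperature with compounds. Nitrocefin (800 uM stock) was then added and hydrolysis followed at 480 nm every 20 s for 4 min.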
Active calls of the source: *; [ ] = another dose, or the depositor's remark. Potency is the fitted concentration of half-maximal effect. Some of the compounds tested. The share of hits here may be higher or lower than overall.

SMILES	AmpC nodet inh
CC1(C)CC(=O)C2=C(C1)NC(=O)CC2c1cccc(F)c1 (stereo unspecified)	5%
O=C(CSc1nnc(Cn2c(=O)sc3ccccc32)n1-c1ccccc1)N1CCCCCC1	103%
Cc1c(C(=O)O)sc(=S)n1CCOc1ccccc1	8%
O=C(CSc1nnc(SCc2ccc(Cl)cc2)s1)N1CCOCC1	96%
Oc1ccccc1-c1nnc(-c2ccc(C(F)(F)F)cc2)o1	-20%
CC(=O)c1cccc(NC(=O)C2CCCN(S(=O)(=O)c3ccccc3)C2)c1 (stereo unspecified)	-2%
CCCc1cc(C(N)=O)c(NC(C)=O)s1	-4%
COc1ncnc2sc(-c3ccccc3)cc12	42%
CCOC(=O)c1cnc(SCc2nc(N)nc(Nc3ccccc3)n2)nc1N	13%
Cc1cc(C)n(-c2ccc(C(=O)NC(C)C)cc2)n1	0%
CCc1c(C)nc2ncnn2c1N1CCC(C(=O)Nc2ccc(C)cc2)CC1	77%
CCN1CCCC1Cn1c(-c2ccccc2)nc2c(NCc3ccccc3)nc(C)nc21 (stereo unspecified)	93%
CNc1nc2sc3c(c2c(=O)n1C)CC(C)(C)SC3	28%
O=C(Nc1n[nH]c(C2CCCCC2)n1)C1CCCCC1	5%
Cc1ccc(S(=O)(=O)c2nc(C(C)(C)C)oc2N2CCOCC2)cc1	8%
Cc1c(NC(=O)Nc2c(Cl)cccc2Cl)c(=O)n(-c2ccccc2)n1C	6%[5.75 µM]
O=c1c(-c2ccc(F)cc2)nc2cnc(N3CCOCC3)nc2n1C[C@H]1CCCO1	14%
CCOc1cc2[nH]c(=O)n(CCC(=O)NCCc3ccc(OC)c(OC)c3)c(=O)c2cc1OCC	62%
CC1(C)C2CCC1(CS(=O)(=O)N1CCCc3ccccc31)C(=O)C2 (stereo unspecified)	15%
CN(C)C(=O)c1ccc(-c2cncnc2N(C)Cc2ccco2)cc1	16%
CN(C)c1ncc(C(=O)O)cn1	-11%
CCc1sc(NC(=O)CN2CCOCC2)nc1-c1ccccc1	90%
CCn1c(SCC(=O)Nc2ccc(N3CCOCC3)c(Cl)c2)nnc1-c1ccc(N)cc1	78%
NC(=O)C1CCN(C(=O)c2cc(S(=O)(=O)N3CCOCC3)c(Cl)cc2Cl)CC1	4%
Nc1c(S(=O)(=O)c2ccccc2)nnn1-c1ccccc1	8%
C=CCn1c(CCC(=O)O)ccc1-c1ccccc1	-1%
CCn1c(=O)cc(OCC(=O)N2CCN(C(=O)c3ccco3)CC2)c2ccccc21	45%
CC(=O)c1ccccc1[N+](=O)[O-]	-3%
O=C(CSc1nnc2ccccn12)Nc1ccccc1C(=O)NC1CC1	-6%
CC(C)c1ccc2oc(-c3cc(N)ccc3O)nc2c1	-7%
CN(C)S(=O)(=O)c1ccc2nc(NC(=O)c3cccnc3)sc2c1	18%
CCn1nnc(NC(=O)COc2cc(C)ccc2C(C)C)n1	-9%
N#CCCn1c(=O)cnc2cnc(Oc3ccccc3)nc21	-5%
COc1ccc(-n2c(=O)c(C)nc3cncnc32)cc1	87%
COc1cccc(-n2nnc3c(=O)n(C/C=C/c4ccccc4)cnc32)c1	-5%
O=C(CSc1nnc(COc2ccc(Cl)cc2)n1Cc1ccco1)c1ccccc1F	-10%
CCCCSc1nc2c(c(=O)[nH]c(=O)n2C)n1CCc1ccccc1	2%
O=Cc1cccc(Br)c1	0%
CCc1ccc(CC)c(S(=O)(=O)Nc2ccc(C(=O)O)c(O)c2)c1	-19%
Cc1ccc(-n2c(O)c(C=NC3CCCCC3N)c(=O)[nH]c2=O)cc1C (stereo unspecified)	3%
CCOC(=O)C1CCN(C(=O)c2ccc(Br)o2)CC1	11%
Cc1nc2ccccc2nc1OCC(=O)NCc1ccc2c(c1)OCO2	-2%
COc1ccc(CCNc2nc(N3CCCCC3)nc(N3CCCCC3)n2)cc1OC	92%
CCCc1nnc2n1N=C(c1ccc(OC)c(OC)c1)CS2	22%
COc1cc(OC)cc(OCC(O)Cn2cnc(-c3ccccc3)c2)c1 (stereo unspecified)	-6%
CC(=O)N1SC(N)=NC1c1ccccc1 (stereo unspecified)	-3%
O=C(CSc1nnc(-c2ccccn2)n1Cc1ccco1)c1ccccc1	-7%
Cc1cc(C)n(CC(O)CN2C(=O)NC(C)(C)C2=O)n1 (stereo unspecified)	7%
Cc1ccc(NC(=O)c2cc(-c3ccc(C)o3)nc3ccccc23)nc1	46%
Cc1cc(Cl)cc(C)c1OCC(=O)O	-3%
O=C(CCCc1nc(-c2ccccc2)no1)NCc1cccnc1	32%
CCn1c(=O)cc(SCC(=O)NCC2CCCO2)c2ccccc21 (stereo unspecified)	1%
O=C(c1cccs1)N1CCC(c2nc3ccccc3s2)CC1	32%
CCCn1c(C)nc2c(NCCN(C)C)nc(C)nc21	8%
CC1(C)CC(=O)C(=CN2CCN(C(=O)c3ccco3)CC2)C(=O)C1	-4%
CCOC(=O)c1nnn(-c2nonc2-n2cccc2)c1CN1CCCCC1	18%
Cn1c(=O)c2cc(S(=O)(=O)NCCC(=O)N3CC=C(c4ccccc4)CC3)ccc2n(C)c1=O	76%
O=C(Cc1ccccc1)OC(COCc1ccccc1)CN1CCOCC1 (stereo unspecified)	84%
O=C1CCc2cc(S(=O)(=O)NCCC(=O)NC3CCN(Cc4ccccc4)CC3)ccc2N1	4%
CCCCCn1c(N2CCN(Cc3ccccc3)CC2)nc2c1c(=O)[nH]c(=O)n2C	104%
The list goes on:
SMILES	AmpC nodet inh
Clc1ccc(CN2C3=NCCN3c3ccccc32)cc1Cl	19%
COc1cc(OC)c(C(=O)Oc2ccc3c(c2)OCO3)cc1OC	47%
COc1ccc(CCn2c(=S)[nH]c3cc(C(=O)NCc4ccco4)ccc3c2=O)cc1OC	19%
O=C(Nc1cccnc1)C1CCCN1S(=O)(=O)c1ccc(Cl)c(Cl)c1 (stereo unspecified)	5%
O=C(c1ccncc1)N1CCC[C@@]2(CCN(Cc3ccccc3)C2)C1	26%
O=C(COC(=O)c1cnccn1)Nc1ccc2c(c1)OCO2	8%
Cc1ccccc1OCC(=O)NCCC(=O)O	-1%
CCOC(=O)CCC(NC(=O)c1ccc(NCN2C(=O)CCC2=O)cc1)C(=O)OCC (stereo unspecified)	6%
O=C(O)CSc1nc(-c2ccccc2)nc2c1oc1ccccc12	-6%
Cc1ccc2cc(C(c3nnnn3C3CCCC3)N(Cc3ccccc3)Cc3ccco3)c(=O)[nH]c2c1 (stereo unspecified)	-21%
CC(C#N)Sc1ncnc2sc3c(c12)CCC3 (stereo unspecified)	10%
COC(=O)[C@@]1(Cc2ccc(OC)cc2)[C@H]2c3cc(C(=O)N4CCCC4)n(Cc4c(CO)[nH]cc(C)c4=O)c3C[C@H]2CN1C(=O)c1ccccc1	176%
CCC1CCCCN1CC(=O)Nc1cc(C)nn1-c1nc(C)cc(C)n1 (stereo unspecified)	93%
CS(=O)(=O)c1sc2nc(-c3cccs3)cc(-c3ccccc3)c2c1N	10µM*[single pt active]
O=C(NCc1cccnc1)c1ccc(S(=O)(=O)N2CCOCC2)cc1	0%
CCC(C)NC(=O)CC1Oc2ccc(Cl)cc2NC1=O (stereo unspecified)	-4%
CC(C)(C)c1csc(N(CCC#N)CCC#N)n1	18%
COc1ccc(-n2c(Cc3cccn3C)nnc2SCC(=O)Nc2cccc(NC(C)=O)c2)cc1	75%
COC(=O)c1cccc(NC(=O)C2COc3ccccc3O2)c1 (stereo unspecified)	-16%
Cc1ccc(S(=O)(=O)Cn2nnnc2C(C(C)C)N2CCSCC2)cc1 (stereo unspecified)	30%
Cc1cc(Br)ccc1OCC(=O)N(Cc1nc(-c2ccccc2)no1)C(C)C	21%
Cc1cc(C)n(-c2nc(NCC(C)O)c3c4c(sc3n2)CCCC4)n1 (stereo unspecified)	135%
CCOC(=O)C1=C(C)NC(=O)NC1c1ccc(Cl)cc1Cl (stereo unspecified)	-2%
COCCN(CCOC)Cc1c(C)[nH]c2ccccc2c1=O	-10%
Cc1csc(NC(=O)CSc2nnc(-c3ccoc3C)o2)n1	16%
O=C(O)CN(CC(=O)O)c1ccccc1	-5%[5.75 µM]
O=C(CN1CCOc2ccccc21)N1CCN(c2cccc(Cl)c2)CC1	72%
O=C(NCc1ccc(F)cc1)C1CCCN(C(=O)Nc2ccccc2)C1 (stereo unspecified)	-4%
CC(=O)Nc1cc(-c2nn3c(C)nnc3s2)ccc1C	10%
CCCCCCNC(=O)Cc1c(O)c2ccccc2[nH]c1=O	-16%
CC(=O)Oc1ccc(C(=O)Nc2nnc(C)s2)cc1	-6%
CCc1ccc2[nH]c(=O)c(CN(Cc3ccccc3)Cc3nnnn3Cc3ccco3)cc2c1	-8%
COc1ccc(C(=O)Nc2cccc(C)c2)cc1	-7%
CCOc1cc(-c2nc(-c3ccc(C)nc3OC)no2)cc(OCC)c1OCC	77%
Oc1oc(-c2ccco2)nc1C=Nc1ccccc1	-10%
CC(C)C[C@@H](CC(=O)N[C@@H](CCC(=O)O)CC(=O)O)NC(=O)[C@@H]1CCCC[C@H]1NC(=O)C[C@H](CCCN)NC(=O)C[C@H](CO)NC(=O)[C@@H]1CCCC[C@H]1N	81%
COc1ccc(S(=O)(=O)N2CCCC(C(=O)O)C2)cc1Cl (stereo unspecified)	-1%
CS(=O)(=O)Nc1ccccc1C(=O)NCc1ccco1	-4%
CCOc1ccc2cc(S(=O)(=O)n3ccnc3C)ccc2c1	-5%
COc1ccc(OC)c(NC(=O)C2C3C=CC(C3)C2C(=O)NCc2ccccn2)c1 (stereo unspecified)	21%

Ordered by molar mass (smallest number first): 6 of the compounds above
SMILES	AmpC nodet inh
COc1ccc(-n2c(=O)c(C)nc3cncnc32)cc1	87%
CC(=O)Nc1cc(-c2nn3c(C)nnc3s2)ccc1C	10%
Cc1c(C(=O)O)sc(=S)n1CCOc1ccccc1	8%
COCCN(CCOC)Cc1c(C)[nH]c2ccccc2c1=O	-10%
O=C(CSc1nnc(SCc2ccc(Cl)cc2)s1)N1CCOCC1	96%
CCn1c(=O)cc(OCC(=O)N2CCN(C(=O)c3ccco3)CC2)c2ccccc21	45%

Following part:
SMILES	AmpC nodet inh
Cn1c(CN2CCOCC2)nnc1SCC(=O)NCCc1ccccc1	-3%
CC(C)(C)NC(=O)NC(=O)COC(=O)COc1ccc2c(c1)CCC2	18%
CC(=O)Nc1cccc(NC(=O)C2CC(=O)N(c3ccc(C)cc3)C2)c1 (stereo unspecified)	22%
COc1cc(OC)cc(C(=O)N2CCN(Cc3cccc(F)c3)CC2)c1	100%
CCN(CC)S(=O)(=O)c1cccc(C(=O)N2CC(O)CC2C(=O)O)c1 (stereo unspecified)	-8%
CN1CCCC(OC(=O)c2cc(Cl)ccc2Cl)C1 (stereo unspecified)	0%
COc1ccc(NC(=O)C2CCCN(C(=O)NC3CCCCC3)C2)cc1OC (stereo unspecified)	18%
COc1ccc(C(=S)N2CCCC2)cc1C	-9%
Cc1ccc2cccc(S(=O)(=O)NC3CCS(=O)(=O)C3)c2n1 (stereo unspecified)	17%
CC1CCCC(C)N1C(=O)CSc1nnc(NC(=O)c2cccs2)s1 (stereo unspecified)	10%
Cn1c(CNc2nc(-c3ccccc3)cs2)nnc1SCC(=O)c1ccccc1	33%
Cc1ccc(C2CC(c3cccc(Br)c3)Nc3nnnn32)cc1 (stereo unspecified)	16%
COc1ccc(C(c2nnnn2Cc2cccs2)N2CCC(C(N)=O)CC2)c(OC)c1 (stereo unspecified)	-13%
COc1ccccc1N1CCN(S(=O)(=O)c2ccc(F)cc2)CC1	7%
CCOc1ccccc1-c1nc(-c2cc3ccc(C)cc3[nH]c2=O)no1	20%
COc1ccc(S(=O)(=O)N[C@@H](Cc2ccccc2)C(=O)N2CC[C@@]3(O)CCCC[C@H]3C2)cc1	42%
Cc1nc(=O)c(-c2ccccc2)c(C)n1-c1ccccc1C(=O)O	-4%
CC(=O)N(C)C1(c2nnnn2CCOC(=O)Nc2cccc3ccccc23)CCCC1	31%
Cc1cc(C(=O)CSc2nnc(N)s2)c(C)n1CCc1ccc(Cl)cc1	-12%
COc1ccc(NC(=O)CN2CCC(C)CC2)cc1	-8%

Some of the entries so far, comma-delimited:
smiles,AmpC nodet inh
CCCc1nnc2n1N=C(c1ccc(OC)c(OC)c1)CS2,22%
COc1cc(OC)cc(OCC(O)Cn2cnc(-c3ccccc3)c2)c1 (stereo unspecified),-6%
CC(=O)N1SC(N)=NC1c1ccccc1 (stereo unspecified),-3%
O=C(CSc1nnc(-c2ccccn2)n1Cc1ccco1)c1ccccc1,-7%
Cc1cc(C)n(CC(O)CN2C(=O)NC(C)(C)C2=O)n1 (stereo unspecified),7%

(list continues)
SMILES	AmpC nodet inh
COc1ccc(C(=O)NCCc2nnc(SCc3nc4ccccc4c(=O)[nH]3)n2C)cc1	6%
CCOC(=O)CSc1nc2cc(C(=O)N3CCC(C(N)=O)CC3)ccc2c(=O)n1-c1ccccc1	80%
Cc1ccc(CCC(=O)Nc2nccs2)o1	0%
COc1ccc(S(=O)(=O)n2nc(OC(=O)c3ccc(C)cc3)cc2N)cc1	13µM*
O=C(CN1CC(c2ccccc2)CC1=O)Nc1cccc(F)c1 (stereo unspecified)	11%
Cc1nc2ccc(Br)cn2c1NC(C)(C)C	4%
COc1ccccc1N1C(=O)CC(N2CCc3ccccc32)C1=O (stereo unspecified)	11%
O=C(O)CCn1c(=O)sc2ccccc21	-6%
O=C(NCc1ccc(C(=O)N2CCC3(CC2)OCCO3)cc1)c1ccc2c(c1)OCO2	28%
Cc1cc(C)c(S(=O)(=O)Nc2ccc(O)cc2)cc1C	-17%
Nc1ccccc1SCC(=O)N1CCc2ccccc21	-4%
Cc1cccc(CS(=O)(=O)Cc2ccc(C(=O)NCCN3CCCCC3C)o2)c1 (stereo unspecified)	-6%
CCOC(=O)[C@H]1CCC[C@@H](NS(=O)(=O)c2ccc(NC(C)=O)cc2)C1	-10%
O=c1[nH]cc(COCc2ccccc2)c(=O)[nH]1	-18%
